Screening data from PubChem.
Ab BasE inh – BasE siderophore enzyme inhibitors, primary screen, biochemical, Acinetobacter baumannii ATCC 17978, fluorescence polarization | purified BasE, fluorescence polarization binding displacement | inhibition, % (test concentration not listed) | 84,000 compounds, 0.1% hits;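 active means both replicates above 25% with normal brightness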;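 further: 0% = negative plate control signal and 100% = positive plate control signal; stock transfer was 100 nL into about 30 µL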
LANA-nucl inh – inhibitors of KSHV LANA-nucleosome binding, primary screen, biochemical, fluorescence polarization, FITC-LANA1-23, chicken nucleosomes | FITC-LANA1-23 / chicken nucleosome fluorescence polarization; active compounds read low | z-score (concentration not given with the values) | 51,000 compounds, 0.3% hits;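 active means both repeat wells score below -2 in polarization z-score versus plate sample wells, excluding overly bright wells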;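 further: 100 nL library stock added to about 30 µL; numbers are from one replicate; some results filed as inactive read as strong as hits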
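System – purified chicken nucleosomes with FITC-labelled LANA N-terminal peptide (1-23) · Amount – 240 nM purified chicken nucleosomes (480 nM peptide binding sites), final · Also added – 50 nM FITC-LANA1-23 probe · Medium – TEN-BT buffer, pH 7.5 · Incubation – compound with peptide–nucleosome mix 10–45 min at room temperature · Detection – fluorescence polarization, ex 480 nm, em 535 nm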
Active calls of the source: *; nt = no result given; & = joins results of further samples. Not all compounds are listed, so the mix of outcomes need not match the whole.

Every second line gives: LANA-nucl inh, Ab BasE inh
O=C1Nc2ccc(Br)cc2C1(O)Cc1ccncc1 (configuration not stated)
    -0.21, -1.2
O=C(COC(=O)c1ccc(S(=O)(=O)NCc2ccco2)cc1)NC1CCCCCC1
    nt, 1.1
C=CCN1C(=O)c2ccc(C(=O)O)cc2C1=O
    nt, -1.4
O=C1Nc2ccccc2/C1=c1/sc2n(c1=O)CN(c1ccccc1)CN=2
    0.096, 3.4
CCCNc1cc(C)oc(=O)c1C(=O)CCC
    0.061, -1.6
COc1ccc2oc(=O)c(C(=O)N(C)Cc3cccnc3)cc2c1
    -0.14, 1.3
CC(C)NC(=O)Oc1cccc(Cl)c1
    nt, 3.2
N#C/C(=C\c1ccccc1OC(F)F)C(=O)O
    nt, -1.8
CCn1cc(C(C)NC(=O)Nc2ccccc2C(=O)OC)c(C)n1 (configuration not stated)
    0.42, 1.4
CCCc1nc2c3ccccc3nc(=S)n2[nH]1
    0.47, 0.0
CC1(C)CC(=O)c2c(ncc3c2CC(C)(C)CC3=O)C1
    0.0045, 1.9
CCCCN(CC)c1ncnc2sc3c(c12)CCC3
    nt, -2.7
FC(F)(F)c1cccc(Nc2ncnc3ccccc23)c1
    1.2, -5.2
O=C1C(c2ccc(F)cc2)N(C2CCCC2)C(=O)CN1C1CCCC1 (configuration not stated)
    -0.073, 0.8
Cc1cc(=O)n2ccccc2n1
    0.31, 5.0
CC(C)(C)OC(=O)N1CCCC[C@@H]1C(=O)O
    nt, 0.5
CCCOC(=O)CSC1=C(C#N)C(c2ccccc2C)C(C#N)C(=O)N1 (configuration not stated)
    -0.65, 1.7
CCN(CC)c1nc(OCCNC(=O)Nc2ccccc2)nc(N(CC)CC)n1
    0.24, 0.4
Cc1onc(-c2ccccc2)c1-c1ccc(S(N)(=O)=O)cc1
    0.013&-0.12, -0.1
C=CCN(CC=C)S(=O)(=O)c1ccc(C(=O)O)cc1
    nt, 0.2
Cc1ccc(C)c(NC(=O)CN(C)C(=O)CSc2nnc(-c3ccc(Cl)cc3)o2)c1
    nt, 2.9
O=C(NCCO)Nc1ccccc1
    -0.19, 2.2
Clc1ccc(-c2noc3ncnc(NCCCN4CCCC4)c23)cc1
    1.4, -7.3
Cc1ccc(S(=O)(=O)N2CCCC2c2nc3ccccc3s2)cc1C (configuration not stated)
    nt, 1.3
Cn1nnnc1SCCCNCc1ccsc1
    -0.89, 0.5
O=C(c1cnc(N2CCCC2)nc1)N1CCOCC1
    -0.4, 1.1
CC1CN(C(=S)Nc2ccccc2)CC(C)O1 (configuration not stated)
    -0.24, -0.7
Cc1ccc(-n2c(C)ccc2-c2ccccc2)cc1
    -0.18, 0.5
CC(C)NC(=O)CSc1nc2ccccc2n1CC(=O)NC(C)C
    0.22, 1.1
O=C1/C(=C/c2ccc3c(c2)OCO3)NC(=S)N1C1CCCCC1
    2.5, -1.5
CN1CCC(=NNC(=O)Cc2cn3ccsc3n2)CC1
    nt, 3.0
Nn1cc(-c2ccccc2)[nH]c1=S
    nt, 2.0
Cc1ccn2cc(-c3cccc(NC(=O)CCC(=O)O)c3)nc2c1
    0.89, -2.1
CC(=O)N1CCN(c2ccc(NC(=O)CSc3nc4ccccc4o3)cc2)CC1
    0.43, -2.0
CCN(CC)C(=O)Cn1cc(S(=O)(=O)CC(=O)N2CC(C)OC(C)C2)c2ccccc21 (configuration not stated)
    -0.26, 0.9
COc1ccc([C@H]2CC(=O)c3c(O)cc(O)cc3O2)cc1O
    -0.14, 3.5
CNC(=O)CCc1nc2ccccc2n(-c2ccc(OC)cc2)c1=O
    nt, -1.9
CCN(C(=O)Cn1nnc(-c2ccc(Cl)cc2)n1)C1CCS(=O)(=O)C1 (configuration not stated)
    nt, -4.0
O=C(NCc1ccc(-c2cccs2)s1)NC(=O)c1ccccc1
    nt, -2.1
Cc1cc(S(=O)(=O)NCc2nc(N)n(S(=O)(=O)c3ccc(F)c(C)c3)n2)ccc1F
    0, 1.3
O=C(OCc1cc(Cl)c2c(c1)OCCO2)C12CC3CC(CC(O)(C3)C1)C2
    nt, -0.9
O=C(CC1SC(N2CCCC2)=NC1=O)Nc1ccc(C(=O)N2CCN(c3ccccn3)CC2)cc1 (configuration not stated)
    nt, -1.1
NC(=O)c1ccccc1OCc1cc2c(cc1Br)OCO2
    nt, -0.8
C=C(C)C(=O)Nc1ccccc1
    -0.38, nt
CCCCOC(=O)c1ccc2c3c(onc13)-c1ccccc1C2=O
    -0.4, 6.5
CCN1CCc2c(OC)cccc2C1=O
    -0.98, -1.2
CN1[C@@H](C[C@H](O)c2ccccc2)CCC[C@H]1CC(=O)c1ccccc1
    0.18, nt
COc1ccccc1NC(=O)/C=N/OCc1nc2sc(C)c(C)c2c(=O)[nH]1
    nt, -0.8
CCOC(=O)c1sc2nc(C)nc(NC3CC3)c2c1C
    nt, -0.3
N#C/C(=C\Nc1ccc(C(=O)O)cc1)c1nc2ccccc2[nH]1
    -0.82, 1.1
Cc1ccc(OCC(=O)NC2CC2)cc1
    -2, 2.6
CC1CN=C(NCCSc2ccc(Cl)cc2)S1 (configuration not stated)
    nt, -1.6
C=CCN(CC=C)C(=O)CCN1C(=O)c2ccccc2C1=O
    0.24, 0.3
Cc1nc(SCC(N)=O)c2c3c(sc2n1)CCCC3
    -0.68, -0.5
O=C(c1ccccc1)N1CCN(S(=O)(=O)N2CCOCC2)CC1
    0.38, 1.8
O=C(Nc1cccc2nsnc12)c1ccc(Cl)cc1
    -0.052, -0.3
COc1ccc(C2=NN(S(C)(=O)=O)C(c3ccccc3OC)C2)cc1 (configuration not stated)
    nt, -7.7
CC1Nc2ccc(C(=O)N3CCC4(CC3)OCCO4)cc2NC1=O (configuration not stated)
    0.22, 1.4
Cc1cccc(C)c1NC(=O)CCCSc1nnc(N)s1
    nt, -0.4
CO[C@H]1/C=C/O[C@@]2(C)Oc3c(C)c(O)c4c(O)c(c(/C=N/N5CCN(C)CC5)c(O)c4c3C2=O)NC(=O)/C(C)=C\C=C\[C@H](C)[C@H](O)[C@@H](C)[C@@H](O)[C@@H](C)[C@H](OC(C)=O)[C@@H]1C
    -0.24&-0.0045, 1.2

Sorted by value in LANA-nucl inh (rising): 4 from the list above.
canonical_smiles	LANA-nucl inh
Cc1nc(SCC(N)=O)c2c3c(sc2n1)CCCC3	-0.68
CCN(CC)C(=O)Cn1cc(S(=O)(=O)CC(=O)N2CC(C)OC(C)C2)c2ccccc21 (configuration not stated)	-0.26
CN1[C@@H](C[C@H](O)c2ccccc2)CCC[C@H]1CC(=O)c1ccccc1	0.18
Cc1ccn2cc(-c3cccc(NC(=O)CCC(=O)O)c3)nc2c1	0.89

Next section
Every second line gives: LANA-nucl inh, Ab BasE inh
COC(C(=O)NN=C1CCN(C)CC1)c1ccccc1 (configuration not stated)
    0.47, 3.6
C=CCNC(=S)Nc1ccc(Br)cc1
    0.15, 3.2
Cc1nnsc1C(=O)Nc1ccccc1C#N
    -1.4, 1.4
NC(=O)c1c(-c2ccc(F)cc2)noc1N
    -0.15, 0.7
CCCCN1C(=O)CNC1=S
    -0.13, -3.8&0.2
CCN(CC)C(=O)CSc1nnc(-c2ccccc2Cl)o1
    nt, 0.9
Cn1nnc(NC(=S)NC(=O)c2cccs2)n1
    -0.052, -1.3
Cc1c(CNC(=O)c2ccc(C(F)(F)F)cc2)sc2ccccc12
    nt, 0.1
CC(C(=O)NCCC1=CCCCC1)n1ncn2cccc2c1=O (configuration not stated)
    -0.51, -0.1
NC(=O)COC(=O)/C=C/c1ccc(S(=O)(=O)N2CCOCC2)cc1
    nt, 1.6
Cc1nnc2c(Nc3ccccc3)nc3ccccc3n12
    0.25, 4.2
CC(C)c1ccc(NC(=O)CSCc2csc3ccccc23)cc1
    nt, 3.6
COc1ccc(C(=O)NC2CCN(CC(=O)N3CCCCCC3)CC2)cc1
    -1.2, 0.1
O=c1ccc(-c2ccc(S(=O)(=O)N3CCN(c4ccccc4)CC3)s2)n[nH]1
    nt, 1.9
CCN(CC)c1ccc(/C=C(/C#N)c2ccc3c(c2)OCO3)cc1
    0.42, 3.9
CCCc1cc(=O)[nH]c(SCC(=O)/C(C#N)=C(\C)N)n1
    nt, -0.6
COC(=O)c1ccccc1NC(=O)CSc1nnc(CSc2nc(C)cc(C)n2)o1
    nt, 2.4
CCOC(=O)c1sc(SCCS(=O)(=O)c2ccc(Cl)cc2)c2c1CCCC2=O
    nt, -0.4
COCCNC(=O)C1c2ccccc2C(=O)N(CCOC)C1c1cccs1 (configuration not stated)
    0.19, -0.5
Cc1nc2cc(C(F)(F)F)ccc2n1C1CCN(C(=O)C2CC2)CC1
    0.94, 3.4
Cn1c(CS(=O)(=O)c2ccc(Cl)cc2)c(C#N)c2ccccc21
    0.24, -2.5
COc1ccc(NC(=O)Cn2c(=O)n(-c3ccccc3)c(=O)c3ccc(C(=O)NCc4ccco4)cc32)cc1
    -0.8, 1.6
O=C(CCC(=O)N1CCN(S(=O)(=O)Cc2ccccc2)CC1)c1cccs1
    nt, 1.1
O=c1[nH]c2nonc2nc1/C=C(\O)c1ccccc1
    -1.1, 2.2
CC(=O)Nc1ccc(S(=O)(=O)NC2CCCCC2NS(=O)(=O)c2ccc(NC(C)=O)cc2)cc1 (configuration not stated)
    -0.86, 1.4
NC(=O)NC(=S)NC(=O)c1ccccc1Cl
    nt, 1.0
Clc1ccc(-c2ncnn2-c2cccc(Cl)c2)cc1
    -0.22, 0.3
CCSC1=C(C#N)C(=O)NC(c2ccc(N(C)C)cc2)S1 (configuration not stated)
    0.11, 7.6
Cc1ccc(NC(=O)N/C(=N/O)c2ccc(NC(=O)C3CC3)cc2)cc1Cl
    nt, -1.4
O=C(CN1CCN(C(=O)CN2C(=O)C3CC=CCC3C2=O)CC1)Nc1ccc(Cl)c(C(F)(F)F)c1 (configuration not stated)
    nt, -2.4
CN(C)c1ccc(C(=O)OCc2ccccc2)cc1
    0.8, 1.4
Cc1c(C)n(Cc2ccccc2)c2ncnc(N)c12
    nt, 2.5
O=C(C1=COCCO1)N1CCN(S(=O)(=O)c2cccc(Cl)c2Cl)CC1
    nt, 0.0
Cc1cccc(C)c1NC(=O)N(Cc1ccccc1)C(=O)CC#N
    nt, 2.2
O=C(NCCCN1CCOCC1)c1nc(-c2ccc(F)cc2)no1
    0.16, 3.2
O=C1CC(C(=O)NCc2ccccc2)N=C(N2CCCCC2)N1 (configuration not stated)
    0.26, -0.6
COC(=O)CCSC1CC(=O)N(c2ccccc2)C1=O (configuration not stated)
    -0.6, 1.2
NC(=O)c1cc(Cl)c(Cl)cc1C(N)=O
    nt, 1.4
O=C(/C=C/c1ccc2ccccc2n1)OCC(=O)c1ccc2c(c1)OCO2
    nt, -4.2
O=C1CCN(C(=O)c2ccc(C(=O)c3ccccc3)cc2)CC1
    nt, 0.1
COc1ccc(CN2C(=O)c3ccccc3C2=O)cc1
    0.15, -1.1
COC(=O)CNC(=O)c1cccc(S(=O)(=O)NCc2ccccc2)c1
    nt, 2.1
COc1ccccc1C1/C(=C(\O)c2cc(C)ccc2C)C(=O)C(=O)N1CCCN(C)C (configuration not stated)
    0.54, -2.5
Cc1nn(CC(=O)Oc2ccc(Cl)cc2)c(C)c1Cl
    -0.49, 3.8
C=C1C(=O)OC2CC1C(OC(C)=O)C/C(C)=C/CC/C(C)=C/CC[C@]2(C)O (some centres not stated)
    -0.25, -1.3
N=Cc1c(O)n(-c2ccccc2)c2ccccc12
    0.75, 3.8
CCOC(=O)c1ccc(NC(=O)CSC(=S)N2CCOCC2)cc1
    nt, -0.9
CN(C)c1ccc(CNC(=O)c2nccn2Cc2ccc(Cl)cc2)cc1
    -0.49, 0.6
CCCc1cc(=O)oc2cc(OCn3nnc4ccccc4c3=O)ccc12
    nt, 0.7
NC(=O)N/C(CSCc1c(F)cccc1Cl)=N/O
    -0.0085, -1.4
O=C(NC1CCCC1)C(c1ccccc1)N(C(=O)c1ccco1)C1CCCC1 (configuration not stated)
    -0.81, -0.1
O=C(O)C1N(Cc2ccccc2)CCCN1Cc1ccccc1
    -0.5, -1.9
Cc1cc(C)c2c(-n3cccc3)c(C(=O)OC3CC(C)OC3=O)sc2n1 (configuration not stated)
    nt, 0.3
COc1cc(/C=C/C(=O)C2=C(O)c3ccccc3C2=O)ccc1O
    1, 7.5
O=C(c1ccc(N2CCCS2(=O)=O)cc1)N1CCN(Cc2ccc3c(c2)OCO3)CC1
    nt, 0.2
Cc1ccc(C(CNC(=O)c2ccccc2)N2CCN(C)CC2)cc1 (configuration not stated)
    -0.1, 0.4
O=C(O)c1ccc2nc(-c3ccccn3)c(-c3ccccn3)nc2c1
    0.23, 0.0
C=CC[N+]1([C@H]2C[C@H]3[C@@H]4CC[C@H]5C[C@H](O)[C@@H](N6CCOCC6)C[C@]5(C)[C@H]4CC[C@]3(C)[C@H]2OC(C)=O)CCCC1
    0.34, nt
CC(C)NC(=O)c1cc2ccccc2oc1=O
    -0.062, -1.5
Cc1ccc(C(=O)CN(Cc2ccccc2)c2ccccc2)cc1
    nt, 1.6
O=C(Nc1ncn[nH]1)c1cccnc1
    nt, 1.6

Another view of two compounds above:
O=C(/C=C/c1ccc2ccccc2n1)OCC(=O)c1ccc2c(c1)OCO2
  LANA-nucl inh = nt
  Ab BasE inh = -4.2
O=C1CCN(C(=O)c2ccc(C(=O)c3ccccc3)cc2)CC1
  LANA-nucl inh = nt
  Ab BasE inh = 0.1
